Screening results as filed in PubChem BioAssay.
CtBP-E1A blk: CtBP/E1A binding inhibition. AlphaScreen GST-E1A/His-CtBP binding, 1536-well; active compounds read low; control for the full effect not named in the record. activity change, % (no concentration beside the values). 0.49% of 340,000 active. AID 651724; in the data active means activity change below about -65%; inconclusive means about -30% to -65%; inactive means above about -30%; also: % is scaled to controls: 0 for no effect and ±100 for the full control effect
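Homogeneous bead-based format: GST-tagged E1A captured on glutathione donor beads, His-tagged CtBP on nickel acceptor beads; compounds precede bead addition by 2 h at 37 °C.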
Sfp PPTase inh: Sfp phosphopantetheinyl transferase inhibition | Biochemical Sfp PPTase activity, qHTS | 3.5% of 310,000 active | Potency, µM, inactives show max response, negative = inhibition, actives largely listed as inhibitors; active = well fitted inhibition curve with a large enough effect; inconclusive = small, poorly fitted or top-dose-only effect, or another doubt; inactive = no such curve, though single readings can be large or run the other way;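 also: the enzyme is Sfp with the accession as filed and its product quenches rhodamine fluorescence; potency is read from the fitted curve at half-maximal effect; 0% = enzyme reaction without inhibitor and -100% = no enzyme wells; top concentration of the series not given in the record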
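Buffer: 50 mM Hepes-Na pH 7.6, 10 mM MgCl2, 0.01% Nonidet P-40, 0.01% BSA. Enzyme 15 nM, pre-exposed to compound 15 min; substrates then added and fluorescence change tracked over 30 min.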
D2 agonist: human D2 receptor agonism in beta-arrestin assay | DiscoveRx PathHunter D2 beta-arrestin, luminescence, 90 min; 100% = 57 uM dopamine signal | activation, % (test concentration not listed) | P14416 | 0.084% of 360,000 active; in the data active = activation above about 40%; inconclusive = about 15% to 40%; inactive = below about 15%; also: compound concentration not given in the record; the text of the record calls up to 30% inactive
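DiscoveRx PathHunter D2 beta-arrestin cells (2,100/well) attached overnight, then compound-stimulated 90 min at 37 C in HBSS/10 mM HEPES/0.1% Tween-20 buffer; beta-galactosidase complementation read by luminescence after 1 h at ambient temperature. Dopamine 57 uM final (EC100) as control.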
TRPV1 potentiator: enhances activation of the human vanilloid receptor TRPV1; Q8NER1; TRPV1-expressing cells, Fluo-8 calcium influx, capsaicin EC20 potentiation; host cell line not named in the record; control for the full effect not named in the record; potentiation, % at 8.33 µM; 0.02% of 320,000 active; AID 540277; active means potentiation above 80%; inconclusive means 30% to 80%; inactive means below 30%; also: 0% is about no effect
Target sequence (Q8NER1 whole entry, looked up): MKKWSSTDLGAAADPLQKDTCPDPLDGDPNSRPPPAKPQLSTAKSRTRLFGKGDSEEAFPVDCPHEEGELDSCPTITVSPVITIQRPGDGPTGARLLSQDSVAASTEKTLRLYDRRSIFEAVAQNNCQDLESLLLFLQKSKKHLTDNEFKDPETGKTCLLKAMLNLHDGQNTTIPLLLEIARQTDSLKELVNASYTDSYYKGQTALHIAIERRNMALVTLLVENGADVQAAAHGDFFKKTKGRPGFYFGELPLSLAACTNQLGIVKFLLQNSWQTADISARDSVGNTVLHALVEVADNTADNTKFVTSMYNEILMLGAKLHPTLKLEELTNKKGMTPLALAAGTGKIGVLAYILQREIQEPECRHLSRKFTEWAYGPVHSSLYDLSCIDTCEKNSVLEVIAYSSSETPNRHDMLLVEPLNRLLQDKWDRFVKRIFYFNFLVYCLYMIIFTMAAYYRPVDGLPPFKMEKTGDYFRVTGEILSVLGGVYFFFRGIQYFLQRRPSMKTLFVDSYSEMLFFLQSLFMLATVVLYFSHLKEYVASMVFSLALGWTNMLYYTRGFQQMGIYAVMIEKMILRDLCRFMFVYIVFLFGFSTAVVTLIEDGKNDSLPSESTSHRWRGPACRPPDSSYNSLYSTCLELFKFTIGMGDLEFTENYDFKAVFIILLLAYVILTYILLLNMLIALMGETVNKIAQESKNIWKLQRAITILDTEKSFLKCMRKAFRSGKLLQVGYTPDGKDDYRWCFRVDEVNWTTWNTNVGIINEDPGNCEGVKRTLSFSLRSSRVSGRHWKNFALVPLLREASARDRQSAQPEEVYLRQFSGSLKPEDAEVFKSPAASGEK
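Fluo-8 calcium influx in TRPV1-expressing cells, kinetic read (ex 480/em 520 nm). Compound added and read 3 min for agonist activity, followed by capsaicin at EC20 final and 2 min further read for enhancement.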
D2 potentiator: human D2 receptor positive allosteric modulation | P14416 | DiscoveRx D2 beta-arrestin cells, luminescence, 90 min; 100% = 57 uM dopamine signal | potentiation, % (no concentration beside the values) | 0.23% of 360,000 active | AID 624464; active = potentiation of 50% or more; inconclusive = 30% to 50%; inactive = 30% or less;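 also: compound concentration not given in the record; tested on top of an EC20 dose of dopamine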
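PathHunter beta-arrestin assay in DiscoveRx D2 cells. Compounds were added with an EC20 of dopamine (50 nM final) for 90 min at 37 deg C. Luminescence was read 1 h after detection reagent, with 57 uM dopamine as the EC100 control.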
Six1-Eya2 blk: Six1/Eya2 interaction inhibition; AlphaScreen GST-Six1/His-Eya2 binding, biochemical; active compounds read low; control for the full effect not named in the record; activity change, % (test concentration not listed); 0.56% of 360,000 active; in the data active = activity change below about -65%; inconclusive = about -30% to -65%; inactive = above about -30%; also: % is scaled to controls: 0 for no effect and ±100 for the full control effect
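Homogeneous AlphaScreen proximity assay pairing GST-Six1 with His-tagged Eya2 (added as 5X mix: 250 nM and 500 nM) in 50 mM Tris pH 8.0, 300 mM NaCl, 1 mM TCEP. Glutathione donor and nickel acceptor beads; 1 h, 37 °C, dark.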
PINK1 expr mod: changes PINK1 expression; PINK1 immunofluorescence, high-content cytometry, 24 h; Potency, µM (doses to about 76.6 µM), inactives show at the highest dose activation (PINK1 increase), most hits filed as activators; 0.2% of 410,000 active; AID 624263; active = well fitted activation curve with a large enough effect; inconclusive = small, poorly fitted or top-dose-only effect; inactive = flat fitted curve, though single readings scatter; cell line not stated here;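 also: potency is read from the fitted curve at half-maximal effect; % of control where 0% means no effect; nearly all actives have a fitted effect of over 65% in size; a mitochondrial uncoupler was the plate control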
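A stable cell line was treated with compounds at 5 concentrations for 24 hours, with CCCP as control. PINK1 levels and mitochondrial localization were measured by immunofluorescence with mitochondrial, cell and nuclear markers after fixation, read by laser-scanning cytometry.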
The depositor's hits bear a star; ? = inconclusive; · = no result given; [ ] = dose if it differs, or a comment.

SMILES	CtBP-E1A blk	Sfp PPTase inh	D2 agonist	TRPV1 potentiator	D2 potentiator	Six1-Eya2 blk	PINK1 expr mod
O=C(CCc1nc(-c2cccs2)no1)NCc1ccc(F)cc1Cl	7	26%	0.4	-11	-2	2	2.3%
CC(Sc1ncccn1)C(=O)Nc1ccc2c(c1)OCO2 (centres undefined)	-2	·	3.4	·	5	-1	-1.8%
O=C(CN(Cc1ccccc1Cl)C(=O)CN1C(=O)CSc2ccccc21)NC1CC1	0	13%	-2.8	-5	-7	-3	0.9%
CCOC(=O)[C@H](C)N1[C@H](C)[C@H](c2ccccc2)Oc2ccc(Cl)cc2S1(=O)=O	0	·	-2.4	·	-6	0	-0.2%
CC1=CS/C(=C(/C#N)C(=O)N2CCOCC2)N1c1ccccc1	1	0%	-0.5	-17	10	4	0.0%
CCOC(=O)Nc1ccc(C)cc1Br	12	11%	-1.0	?	6	6	-2.3%
C=C(C)C1CC=C(C)/C(=N/NC(=O)COc2ccc(C)cc2)C1 (centres undefined)	0	20%	-0.9	6	-4	7	12%
Cc1ccc(NC(=O)COC(=O)C2=NNC(=O)CC2)c(Br)c1	-18	·	-4.1	·	-3	0	-0.1%
CCOc1ccc(-c2cc(CCCC(=O)NCCC(C)C)no2)cc1	8	-1%	-0.5	6	-1	-3	1.6%
Cc1ccc(C)c(NS(=O)(=O)c2ccc(OCC(=O)N3CCCC3)cc2)c1	5	13%	0.4	-4	-2	6	-5.0%[38.3 µM]
CCN1CCN(CCOCCOc2ccccc2)CC1	·	50µM*	4.1	-6	-15	7	1.3%
Cc1ccc(C(C(=O)NC2CCCC2)N(C(=O)CCC(=O)Nc2cc(C)on2)c2ccccc2)cc1 (centres undefined)	2	32%[activator]	-2.8	14	6	5	7.0%
CC(C)(C)C(C(=O)n1cccc1C#N)c1ccccc1 (centres undefined)	11	·	-5.2	1	-6	9	1.2%
CN(C)CC1C2CCC(C2)C1O (centres undefined)	7	·	-3.3	·	-4	0	2.0%
N#CC1(Nc2ccccc2)C(=O)Nc2ccccc21 (centres undefined)	-1	22%	-16	15	-57	0	1.0%
O=C(O)CCCCCNc1nc(-c2ccccc2)nc2ccccc12	-12	17%	-0.4	-5	1	?	0.8%
O=C(NCCCN1CCOCC1)c1cccc(NS(=O)(=O)c2ccc(Br)cc2)c1	6	·	8.5	3	-4	3	-0.9%
CC1CCCC(NC(=O)COC(=O)/C=C/c2ccc(F)cc2)C1C (centres undefined)	-1	·	-0.6	·	-10	-2	1.6%
COC(=O)c1ccc(COc2ccc(C=O)cc2)o1	·	2%	-3.9	-3	-9	3	-0.1%
O=C(NCCCn1cccn1)C1CCC(=O)N(CCc2ccccc2)C1 (centres undefined)	0	14%	-1.3	11	0	-1	0.2%
O=C(CCc1ccccc1)N/N=C/c1cccc([N+](=O)[O-])c1	·	-2%	-2.5	-8	-4	9	5.1%
CCOC(=O)N1CCN(Cc2c(F)cccc2Cl)CC1	6	-25%	-0.4	-14	1	0	6.0%[38.3 µM]
O=C(NCC(=O)N1CCN(c2ccccc2)CC1)c1ccccc1	1	9%	1.4	0	1	-4	1.6%
COc1cc2c(cc1OC)C(C(=O)Nc1ccc(F)c(Cl)c1)CC(=O)N2 (centres undefined)	-5	3%	-5.7	17	1	6	2.2%

A second format for part of the listing above:
Values in the order – CtBP-E1A blk	Sfp PPTase inh	D2 agonist	TRPV1 potentiator	D2 potentiator	Six1-Eya2 blk	PINK1 expr mod
- CCOC(=O)N1CCN(Cc2c(F)cccc2Cl)CC1
→ 6	-25%	-0.4	-14	1	0	6.0%[38.3 µM]
- O=C(NCC(=O)N1CCN(c2ccccc2)CC1)c1ccccc1
→ 1	9%	1.4	0	1	-4	1.6%

One compound at a time, as listed above. Order of screens: CtBP-E1A blk | Sfp PPTase inh | D2 agonist | TRPV1 potentiator | D2 potentiator | Six1-Eya2 blk | PINK1 expr mod
`CC1CCCC(NC(=O)COC(=O)/C=C/c2ccc(F)cc2)C1C` (centres undefined) as listed: -1 | · | -0.6 | · | -10 | -2 | 1.6%
`COc1cc2c(cc1OC)C(C(=O)Nc1ccc(F)c(Cl)c1)CC(=O)N2` (centres undefined) as listed: -5 | 3% | -5.7 | 17 | 1 | 6 | 2.2%
`CN(C)CC1C2CCC(C2)C1O` (centres undefined) as listed: 7 | · | -3.3 | · | -4 | 0 | 2.0%
`O=C(NCCCn1cccn1)C1CCC(=O)N(CCc2ccccc2)C1` (centres undefined) as listed: 0 | 14% | -1.3 | 11 | 0 | -1 | 0.2%
`O=C(O)CCCCCNc1nc(-c2ccccc2)nc2ccccc12` as listed: -12 | 17% | -0.4 | -5 | 1 | ? | 0.8%

Other results
SMILES	CtBP-E1A blk	Sfp PPTase inh	D2 agonist	TRPV1 potentiator	D2 potentiator	Six1-Eya2 blk	PINK1 expr mod
COc1ccc(Cl)cc1NC(=O)CN(C)C(=O)C1COc2ccccc2O1 (centres undefined)	0	·	-4.0	·	-14	15	4.0%
Cn1ncc(SCc2ccccc2)c(Cl)c1=O	-1	6%	-3.4	-3	-3	5	-0.4%
O=C(NCc1cccc(F)c1)c1ccc(N2C(=O)Cn3c(cc4sccc43)C2=O)cc1	-21	3%	-3.7	-2	0	?	-1.7%
CNC(=O)c1c(NC(=O)c2ccco2)sc(C)c1C	-15	·	-6.7	1	-17	-10	-1.0%
CCOc1ccccc1NC(=O)CNC(=O)c1nn(-c2ccc(OC)c(OC)c2)c(=O)c2ccccc12	7	29%	10	20	15	0	-0.7%
CCc1ccccc1NC(=O)Nc1ccc(F)cc1	1	15%	-3.2	-13	-7	8	-0.6%
Cc1ccc2c(c1)C(O)(CC(=O)c1ccc3c(c1)OCO3)C(=O)N2 (centres undefined)	2	11%	-1.6	-19	-18	7	0.5%
CSCCC(NC(=O)c1ccc(Cl)c([N+](=O)[O-])c1)C(=O)N1CCN(C/C=C/c2ccccc2)CC1 (centres undefined)	-24	·	3.1	-10	-31	-28	-2.5%
Cc1ccc(C(=O)NC(=S)NNS(=O)(=O)c2ccc(C)cc2)cc1	1	-3%	1.2	?	11	-8	0.9%
CCOC(=O)C1=C(COC(=O)CCOc2ccc(OCC)cc2)NC(=O)NC1C (centres undefined)	·	·	7.3	-7	6	23	2.0%
NC(=O)C1CCN(C(=O)CNC(=O)c2ccccc2)CC1	-12	13%	1.6	?	-2	7	0.4%
CC1(C(=O)NS(=O)(=O)C2CC2)CCCN(C(=O)c2ccco2)C1 (centres undefined)	7	·	-2.7	·	-8	3	0.1%
O=C(Nc1ncccc1O)c1ccc(Cl)c(S(=O)(=O)N2CCCC2)c1	-2	·	0.0	·	-10	-12	1.2%
CNC(=O)/C(C#N)=C/c1ccc(-c2ccccc2[N+](=O)[O-])o1	-13	-8%	-0.2	-13	-5	-14	4.6%
Cc1ccc(NC(=O)Nc2nnc(Cc3ccc([N+](=O)[O-])cc3)s2)cc1	-22	-9%	-4.1	-14	14	7	?
COC(=O)c1cc(-c2ccc(Br)cc2)n[nH]1	-3	12%	-0.4	0	20	-2	-0.5%
O=C(O)c1cccc(NC(=S)NCc2ccccc2)c1	11	7%	-0.7	13	2	-6	0.3%
CCCNC(=O)CN(c1cccc(F)c1)S(C)(=O)=O	0	8%	-6.9	2	-7	20	3.5%
CC(=O)NS(=O)(=O)c1ccc(NC(=S)NC(=O)Cc2ccccc2)cc1	3	14%	-5.0	8	-1	4	0.4%
COc1ccccc1C(=O)N1CC(=O)Nc2ccc(F)cc2C1c1ccccc1 (centres undefined)	-23	6%	-2.8	0	-11	10	-1.4%
O=C(c1ccc(CS(=O)(=O)c2ccc(Br)cc2)o1)N1CCCC1	5	-3%	-1.7	-6	-11	-1	3.3%
CCCOc1ccc(N2C(=O)C3C4C=CC(CC4)C3C2=O)cc1 (centres undefined)	·	14%	-0.4	7	-8	10	2.0%
COCCn1c(SC(C)C(=O)NCC2CCCO2)nc2sc3c(c2c1=O)CCC3 (centres undefined)	2	·	-2.3	-24	-15	-8	0.9%
COc1ccc(CN2CCN(CCc3ccccc3)C(CCO)C2)c(Cl)c1OC (centres undefined)	-3	2%	-2.7	-1	0	-5	5.2%
CC1(C)CC(=O)C2=C(C1)Nc1ccccc1N1C(=O)c3ccccc3C21 (centres undefined)	0	16%	-0.2	5	-4	2	0.4%[38.3 µM]
Cc1cccc(NC(=S)NC(=O)/C=C/c2ccccc2)n1	-1	1%	?	-4	-9	-7	0.0%
Cc1cc(CNC(=O)COc2ccc(F)cc2)c2ccccc2n1	·	12%	6.6	-4	-1	4	1.6%
CC(C)(C)n1nnnc1C(c1ccc(F)cc1)N1CCC(C(N)=O)CC1 (centres undefined)	·	23%	-2.7	-3	-13	7	-0.4%
CC(C)(C)c1cc(C(=O)N2CCN(c3ncccn3)CC2)ccn1	-2	22%	-0.6	12	-7	3	0.0%
COC(=O)C(CCSC)NC(=O)CNS(=O)(=O)c1ccc(F)cc1 (centres undefined)	5	17%	-1.4	3	5	2	3.8%
Cn1c(-c2ccco2)nc2cc3ccccc3cc21	4	56µM*	-0.3	·	-7	10	-3.6%
CCOC(=O)C1=NNC(C(=O)c2ccc(C)cc2)C1c1ccc(C)cc1 (centres undefined)	0	?	-7.8	-3	-5	-1	1.6%
Cc1ccc(NC(=O)Cn2nc(C)cc2C)cc1	-2	17%	-0.8	27	-14	15	0.1%
Cc1cccc(C)c1NC(=O)CN1C(=O)N(C)Cc2ccccc21	27	1%	0.3	-2	-2	9	3.2%
CC1Cc2ccccc2N1C(=O)CNc1cccc(S(=O)(=O)N2CCCC2)c1 (centres undefined)	-8	2%	-3.4	16	-5	-9	-1.0%
O=C(Cc1nc(-c2cnccn2)no1)NNC(=O)Nc1ccccc1	0	4%	-4.7	12	-3	4	1.2%
O=C(Cc1ccccc1)Nc1ccc2c(c1)CCC2	-23	10%	-8.8	-12	-2	-14	-2.6%
CCC(C)[C@H](NC(=O)N1CC(=O)Nc2ccccc21)C(=O)N[C@@H](C(=O)O)c1ccccc1 (some centres undefined)	3	6%	-4.1	9	-3	-1	0.8%
O=C(Cn1cc(C(F)(F)F)ccc1=O)N/N=C/c1ccc(O)cc1	8	6%	-6.2	13	-7	0	-0.8%
COC(=O)C(=C/C=C/c1cccnc1)C(=O)OC	1	-4%	0.3	4	-25	1	0.8%
Clc1ccc(C(c2nnnn2C2CCCC2)N2CCN(c3nc4ccccc4s3)CC2)cc1 (centres undefined)	10	·	-4.8	·	9	0	2.2%
O=C(CCNS(=O)(=O)c1cccc2nsnc12)NC1CCCc2ccccc21 (centres undefined)	-3	6%	-3.9	13	-2	0	-0.1%
